BJeLR viability: MLPCN primary cell-based screen for lethality selective to Ras in HRASV12 cells; inhibition, % (test concentration not listed); 0.17% of 300,000 active; BJeLR (HRASV12) viability, CellTiter-Glo ATP luminescence, 48 h; reference of the scale not given here;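 active = replicate mean above 50%; inconclusive = above 50% but judged a plate artefact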;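 also: 50 nL library stock added to about 25 µL; numbers are from one replicate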
Sa ugtP lethal: growth inhibition of ugtP-null S. aureus, primary screen, RN4220 ugtP deletion, OD600; 16 h; some inactives read as strong as hits; 0.54% of 330,000 active; AID 1259309, 2017; growth inhibition, % (no concentration beside the values);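 active = z-score under -3 and OD600 up to 0.15 on both plates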;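 also: plate controls were untreated wells for no effect and antibiotic for full effect; wells of about 80 µL received 100 nL stock; the first replicate is given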
Bead autofluor: flagged as autofluorescent in microsphere protease counterscreen; compound autofluorescence counterscreen, microsphere flow cytometry; active compounds read high; fluorescence intensity (test concentration not listed); 3.1% of 360,000 active;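 active = at least 3 SD above the mean of all compounds, about 16000 in these data; inconclusive = too few beads counted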;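 also: 100 nL of 1 mM stock went into each well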
Mtb hypoxia rep: PubChem AID 1159583. 0.1% of 300,000 active. M. tuberculosis hypoxia-regulated fluorescent reporter, fluorescence. fluorescence inhibition, % (no concentration beside the values);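 active = 35 to 45% if threefold the growth effect, above 45% if 1.5-fold the growth effect; inactive = the rest, general growth blockers included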;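 also: wells of about 50 µL received 100 nL stock; 0% = vehicle wells and 100% = reference inhibitor wells; whole bacteria with a GFP reporter of the hypoxia response; strong numbers were not always called active; many hits fall short of the cut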
Sa RN4220 lethal: growth inhibition of S. aureus RN4220, primary screen, OD600; 0.33% of 330,000 active; inhibition, % (concentration not given with the values); 16 h;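 active = z-score of -3 or lower and OD600 up to 0.18 on both plates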;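 also: plate controls were untreated cells for no effect and reference antibiotic for full effect; stock transfer was 100 nL into about 80 µL; one replicate is shown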
PrP UTR inh: inhibition of PrP 5' UTR reporter expression; cell-based PrP 5' UTR mRNA reporter, plate reader; AID 488862, 2010; inhibition, % (no concentration beside the values); 0.35% of 340,000 active;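 active = every replicate at 50% or more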;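 also: 0 = median of the neutral control wells; tested in H4 reporter cells; numbers are from one replicate; inactives centre near -14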
Mtb hypoxia rep growth: recorded beside Mtb hypoxia rep, whose call it bears; growth inhibition, %; measured here: M. tuberculosis growth (absorbance);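 0% = vehicle and 100% = reference antibiotic; read after six days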
Starred values were filed as active, the others as inactive; ? = inconclusive; · = not tested or not shown.

SMILES | BJeLR viability | Sa ugtP lethal | Bead autofluor | Mtb hypoxia rep | Mtb hypoxia rep growth | Sa RN4220 lethal | PrP UTR inh
COc1cccc(CNC(=O)c2c(C)nn(-c3ccccc3)c2C)c1 | 0 | 13 | 4755 | -8 | -4 | 8.4 | -5
CCN(CC)CC(O)COc1ccc2c(c1)c(C(C)=O)c(C)n2-c1ccccc1 (stereo not drawn) | 6 | 7 | 4986 | · | · | -1.6 | -9
O=C(CNC(=O)c1ccco1)NCC(=O)OCc1c(F)cccc1Cl | 1 | 9 | 6009 | 11 | 11 | 2.3 | -2
Cc1ccc(NC(=O)CC(=O)Nc2ccc(C)c(C)c2)cc1C | 10 | · | 5015 | · | · | · | -10
CC(C)CC(NC(=O)c1nc[nH]c1C(=O)NC1CCN(C(=O)OC(C)(C)C)CC1)C(=O)OC(C)(C)C (stereo not drawn) | · | 3 | · | -8 | 6 | 6.4 | ·
CC(C)(C)OC(=O)NCC(=O)Oc1cc2oc(=O)cc(-c3ccccc3)c2cc1Cl | -6 | -12 | 2143 | 1 | -13 | -2.3 | -6
COc1ccc(NC2=C(C(C)=O)C(c3ccc4c(c3)OCO4)C(C(C)=O)C(C)(O)C2)cc1 (stereo not drawn) | -6 | -2 | 10337 | 3 | 4 | 1.6 | -12
Cn1c(O)c(C(=Nc2ccc(F)cc2)c2ccccc2Cl)c(=O)n(C)c1=O | -1 | 1 | 4698 | 15 | -5 | 4.6 | -14
O=C(O)CCC(=O)NNC(=O)COc1ccc(Cl)cc1Cl | -4 | 9 | 4651 | 10 | 0 | 7.2 | -23
COc1cc(NCCCCCCCN)c2ncccc2c1 | 0 | 0 | 15425 | 1 | 7 | 6.5 | -16
N#Cc1ccc(C(=O)Nn2cnnc2)cc1 | 5 | 5 | 3618 | 10 | -7 | 2.5 | -14
Oc1ccc(Br)cc1C=Nn1c(COc2ccccc2)n[nH]c1=S | · | 3 | · | 0 | -3 | 5.8 | ·
CC(OC(=O)C1CSC2(C)CCC(=O)N12)C(=O)Nc1ccc(F)cc1 (stereo not drawn) | · | 0 | 3845 | -10 | 2 | 3.0 | -28
COc1cccc(-n2c(SCC(=O)Nc3nc4ccccc4s3)nc3ccccc3c2=O)c1 | 0 | 9 | · | -5 | 3 | -4.6 | ·
O=C(C1CCN(S(=O)(=O)c2ccc(F)cc2)CC1)N1CCOCC1 | -3 | 7 | 9289 | 11 | -3 | 4.4 | -31
O=C(CNC(=O)c1ccc(-c2ccccc2)cc1)OCc1c(Cl)cccc1Cl | 0 | 2 | 2593 | 11 | 6 | 1.9 | -22
Cc1cc(Cl)ccc1OC(C)C(=O)Nc1ccc(S(=O)(=O)Nc2cnc3ccccc3n2)cc1 (stereo not drawn) | -4 | 10 | 2757 | · | · | -11 | -22
COCC(=O)Nc1nnc(CCc2ccccc2)s1 | -7 | 12 | ? | 6 | -4 | 2.7 | -2
COc1ccc(S(=O)(=O)NCC(=O)N(CC(=O)NCC2CCCO2)Cc2ccc(F)cc2)cc1 (stereo not drawn) | -3 | 6 | 3025 | 0 | -2 | 1.0 | -16
COc1cccc(-c2c(C(=O)N/N=C(\C)COc3ccccc3)nnn2-c2nonc2N)c1 | -1 | · | 4599 | · | · | · | -19
O=C(COC(=O)c1cccs1)Nc1cccc(S(=O)(=O)N2CCOCC2)c1 | -22 | 0 | 2475 | -3 | -2 | 5.4 | -1
CC1CCN(C(=O)C(Cc2ccccc2)n2cccc2)CC1 (stereo not drawn) | 0 | -9 | 5590 | 0 | 4 | -2.5 | -23
CN1CCN(C(=S)Nc2cccc(C(F)(F)F)c2)CC1 | 4 | 1 | 2200 | -6 | 2 | 1.1 | -9
Cc1cc(C)c(C#N)c(OCc2ccc(Cl)nc2)n1 | 1 | -4 | 3735 | -6 | -2 | 4.0 | -9
O=C(NCCCc1ccccc1)C1CCC(=O)N(CCc2ccc(Cl)cc2)C1 (stereo not drawn) | -8 | 11 | 4012 | 0 | -5 | 2.7 | -14
CCOC(=O)CNC(=O)Cn1cnc2c(nnn2-c2cccc(Cl)c2)c1=O | -7 | -3 | 23372* | 14 | 22 | 1.3 | 4
CCOc1ccc(S(=O)(=O)N(CC(N)=O)c2ccc(C)cc2)cc1 | -11 | 3 | 4134 | 12 | 9 | 0.5 | -2
COc1cccc(/C=C2\SC(=O)N(CCC(=O)NCCCn3ccnc3)C2=O)c1 | 4 | 10 | 6062 | 9 | 0 | 0.7 | -38
O=C(O)c1cc2n(n1)C(C(F)(F)F)CC(C1CC1)N2 (stereo not drawn) | -1 | 4 | 3362 | 10 | 11 | 6.2 | 0
COC(=O)c1ccc[n+](CC(=O)Nc2ccc(OC(F)F)cc2)c1 | 1 | 11 | 4403 | 7 | 4 | -1.7 | -18
CCOc1ccc(-c2cn(-c3ccccc3OC)c(=S)[nH]2)cc1 | -2 | -8 | 4016 | 1 | 2 | 4.2 | -37
O=c1[nH]c(=O)n(C2CCCCC2)c(O)c1C=Nc1ccc(N2CCOCC2)cc1 | 3 | -1 | 7998 | 7 | 6 | 5.5 | -26
Cc1ccc(S(=O)(=O)NN=Cc2ccc3c(c2)OCO3)c(C)c1 | · | 10 | · | 1 | -1 | 5.6 | ·
COc1ccc(-n2c(COc3cccc(C)c3)nnc2SCC(=O)O)cc1 | 11 | · | 3280 | · | · | · | -26
Cc1[nH]c(=O)[nH]c(=O)c1S(=O)(=O)N1CCCC(C(=O)N2CCN(c3ccccc3Cl)CC2)C1 (stereo not drawn) | 6 | 0 | 2187 | · | · | 4.1 | -5
Cc1ccc(C(=O)NCCS(=O)(=O)N2CCN(c3ccccc3F)CC2)cc1[N+](=O)[O-] | 0 | 6 | 4578 | 8 | 2 | 3.1 | -7
O=C(NC1CCCCC1)C1CCCN1S(=O)(=O)c1ccc(Cl)cc1 (stereo not drawn) | -4 | 6 | 3631 | 13 | 6 | 2.6 | -21
CC(NC(=O)CN(C)Cc1cccs1)c1ccccc1 (stereo not drawn) | 4 | 3 | 2621 | 7 | 1 | 1.2 | 0
CN(Cc1ccccc1)c1nc2c(c(=O)n(C)c(=O)n2C)n1CCCc1ccccc1 | 9 | 42 | 3284 | 5 | -1 | 4.5 | -28
C[C@H](CO)N1C[C@H](C)[C@@H](CN(C)Cc2ccc(C(=O)O)cc2)Oc2c(NS(=O)(=O)c3ccc(F)cc3)cccc2C1=O | · | -6 | 3893 | 0 | 13 | -14 | -18

Not a retest: an excerpt of the list.
SMILES | BJeLR viability | Sa ugtP lethal | Bead autofluor | Mtb hypoxia rep | Mtb hypoxia rep growth | Sa RN4220 lethal | PrP UTR inh
CCOc1ccc(-c2cn(-c3ccccc3OC)c(=S)[nH]2)cc1 | -2 | -8 | 4016 | 1 | 2 | 4.2 | -37
O=c1[nH]c(=O)n(C2CCCCC2)c(O)c1C=Nc1ccc(N2CCOCC2)cc1 | 3 | -1 | 7998 | 7 | 6 | 5.5 | -26
Cc1ccc(S(=O)(=O)NN=Cc2ccc3c(c2)OCO3)c(C)c1 | · | 10 | · | 1 | -1 | 5.6 | ·
COc1ccc(-n2c(COc3cccc(C)c3)nnc2SCC(=O)O)cc1 | 11 | · | 3280 | · | · | · | -26
Cc1[nH]c(=O)[nH]c(=O)c1S(=O)(=O)N1CCCC(C(=O)N2CCN(c3ccccc3Cl)CC2)C1 (stereo not drawn) | 6 | 0 | 2187 | · | · | 4.1 | -5
Cc1ccc(C(=O)NCCS(=O)(=O)N2CCN(c3ccccc3F)CC2)cc1[N+](=O)[O-] | 0 | 6 | 4578 | 8 | 2 | 3.1 | -7
O=C(NC1CCCCC1)C1CCCN1S(=O)(=O)c1ccc(Cl)cc1 (stereo not drawn) | -4 | 6 | 3631 | 13 | 6 | 2.6 | -21
CC(NC(=O)CN(C)Cc1cccs1)c1ccccc1 (stereo not drawn) | 4 | 3 | 2621 | 7 | 1 | 1.2 | 0
CN(Cc1ccccc1)c1nc2c(c(=O)n(C)c(=O)n2C)n1CCCc1ccccc1 | 9 | 42 | 3284 | 5 | -1 | 4.5 | -28
C[C@H](CO)N1C[C@H](C)[C@@H](CN(C)Cc2ccc(C(=O)O)cc2)Oc2c(NS(=O)(=O)c3ccc(F)cc3)cccc2C1=O | · | -6 | 3893 | 0 | 13 | -14 | -18

(list continues)
SMILES | BJeLR viability | Sa ugtP lethal | Bead autofluor | Mtb hypoxia rep | Mtb hypoxia rep growth | Sa RN4220 lethal | PrP UTR inh
O=C(Cn1cnc2c(oc3nc4c(cc32)CCCC4)c1=O)Nc1cccc(Cl)c1 | 10 | · | 5899 | · | · | · | -26
C=CCN(Cc1ccc(OC)c(OC)c1)C(=O)N1CCOCC1 | 10 | 2 | 4120 | -5 | -6 | 0.4 | ·
CCCC[n+]1ccn(C2=C([O-])c3ccccc3C(=O)/C2=N\S(=O)(=O)c2ccc(Cl)cc2)c1 | 9 | · | ? | · | · | · | -21
O=C(O)/C=C/C(=O)Nc1cccc(C(F)(F)F)c1 | -5 | 5 | 2039 | -2 | -1 | 2.8 | -11
Cc1nn(-c2ccccc2)c(C)c1NC(=O)COc1ccc(F)cc1Cl | -9 | 4 | 2323 | 8 | 13 | 23 | -36
Cc1ccccc1N(C)S(=O)(=O)c1nnc(NC(=O)c2ccco2)s1 | 3 | 1 | 5240 | 6 | 5 | 4.8 | -7
COC(=O)C(NC(=S)N1CC2C[C@@H](C1)Cn1c2cccc1=O)C(C)C (stereo partly drawn) | 17 | 4 | 3035 | 11 | 8 | 0.7 | 1
COCCNC(=O)CCCn1c(=O)c2cc(OC)c(OC)cc2n(CC(=O)c2ccccc2)c1=O | 10 | 2 | 4686 | 9 | 4 | 2.8 | -40
CN1/C(=C/C2CC(=O)N(c3ccc([N+](=O)[O-])cc3)C2=O)C(C)(C)c2ccccc21 (stereo not drawn) | 7 | 0 | 12204 | 7 | -3 | 4.7 | ·
Cc1ccc(SCc2c(C(=O)NN=Cc3ccoc3)nnn2-c2nonc2N)cc1 | · | 6 | · | 6 | 4 | 4.4 | ·
CCOc1ncccc1C(=O)OCC(=O)Nc1ccc(S(=O)(=O)N2CCOCC2)cc1 | -4 | 6 | 2153 | 3 | 1 | 4.6 | -35
Cc1ccc(NC(=O)C2Cc3ccccc3C(=O)O2)cc1 (stereo not drawn) | · | 4 | 3149 | 3 | 13 | 7.8 | -43
COC(CNC(=O)c1cn(C)c2ccc(S(=O)(=O)N3CCOCC3)cc2c1=O)OC | 3 | 3 | 5679 | 7 | 7 | 0.2 | -12
O=C(O)c1ccc(N/N=C/c2ccc(F)c(F)c2)cc1 | 3 | · | 2668 | · | · | · | -53
CC(C)(C)OC(=O)N1CCC(CC2CC(c3ccccc3)=NO2)(C(=O)O)CC1 (stereo not drawn) | 4 | 3 | 2686 | 4 | 9 | 3.2 | -50
C/C(N)=C(/C#N)C(=O)COC(=O)c1ccncc1 | -5 | -2 | 4356 | -3 | 3 | -4.6 | -32
COC(=O)C1=C(c2ccc(C(C)=O)cc2)CC2CCC1N2C(=O)NC(C)C (stereo not drawn) | · | 5 | · | 9 | -5 | 5.7 | ·
O=C(CCc1ccccc1)NNC(=O)COc1ccccc1Cl | 4 | 10 | 2997 | 1 | -5 | 3.8 | -26
CC(=O)Nc1ccc(-n2c(=O)c3ccccc3c3ccccc3c2=O)cc1 | -7 | 7 | 3386 | · | · | 9.3 | -15
O=C(CN1CCS(=O)(=O)CC1)N/N=C/c1cccc(C(F)(F)F)c1 | -13 | · | 4243 | · | · | · | -3
CC1CCN(c2c(NCC3CCC(C(=O)NCCCc4ccccc4)CC3)c(=O)c2=O)CC1 (stereo not drawn) | -4 | 17 | · | -9 | 3 | 3.7 | ·
O=C(COC(=O)c1cccs1)Nc1ccc(S(=O)(=O)N2CCOCC2)cc1 | 13 | 4 | 2570 | 3 | 9 | 2.7 | -24
C/C(=N\OC(=O)Nc1ccc(Cl)cc1)c1ncc(C(F)(F)F)cc1N1CCOCC1 | 7 | · | 4394 | · | · | · | -29
Cc1nn(CC(=O)NCc2ccccc2)c(=O)c2ccccc12 | 0 | -2 | 8717 | -2 | 1 | -1.1 | -22

Screening results deposited in PubChem BioAssay by several laboratories.
